Screening results as filed in PubChem BioAssay.
RE007 growth inh: less growth of the S. pombe RE007 Vpr strain. Potency, µM (titrated, usually from 92.2 µM), for inactives: at the highest dose activity change, negative = less growth. S. pombe RE007 Vpr strain, BacTiter-Glo ATP luminescence, 24 h; control for the full effect not named in the record. actives 0.21% (n = 360,000). AID 651644; active = well fitted falling curve with a large enough effect; inconclusive = small, poorly fitted or top-dose-only effect; inactive = no such curve, though single readings can be large or run the other way;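 also: % is scaled to controls: 0 for no effect and ±100 for the full control effect; nearly all actives have a fitted effect of over 50% in size; the assay follows cell death caused by Vpr and the record does not say whether a fall means rescue or toxicity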
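Fission yeast RE007 carrying one integrated HIV-1 vpr copy, seeded at OD 0.01 in PMG+AL medium with 23 nL pinned compound. Grown 24 h at 30 degrees; viability read by BacTiter-Glo luminescence after 5 min.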
Cruzain inh Det: cruzain (T. cruzi) inhibition with detergent | P25779 | purified cruzain, Z-FR-AMC fluorescence, 0.01% Triton | Potency, µM, without a hit: max response, negative = inhibition, usual class: inhibitors | actives 0.43% (n = 200,000);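 also: plate controls were neutral wells for no effect and buffer without enzyme for full effect; nearly all actives have a fitted effect of over 40% in size; top concentration of the series not given in the record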
Target sequence (P25779 123-467 limits assumed): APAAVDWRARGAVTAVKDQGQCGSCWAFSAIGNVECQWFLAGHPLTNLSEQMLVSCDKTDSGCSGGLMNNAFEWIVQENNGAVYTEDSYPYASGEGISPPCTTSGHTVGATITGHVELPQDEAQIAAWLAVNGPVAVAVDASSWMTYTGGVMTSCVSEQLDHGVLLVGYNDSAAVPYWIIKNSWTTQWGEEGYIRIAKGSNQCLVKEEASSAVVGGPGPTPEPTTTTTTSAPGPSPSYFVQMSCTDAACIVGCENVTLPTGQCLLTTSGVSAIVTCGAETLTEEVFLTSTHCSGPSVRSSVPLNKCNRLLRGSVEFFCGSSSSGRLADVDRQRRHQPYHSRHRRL
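Detergent-containing run (0.01% Triton X-100) in acetate buffer pH 5.5 with 5 mM DTT: enzyme at 1.5 nM final, 15 min compound preincubation at room temperature, then 2 uM Z-FR-AMC substrate. Activity taken as 60 s fluorescence increase at 360/450 nm.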
SARS PLP yeast: SARS-CoV PLP inhibition in yeast; S. cerevisiae expressing SARS-CoV PLpro, growth rescue; control for the full effect not named in the record; Potency, µM (top dose mostly 32.9 µM), for the others: at the highest dose activity, positive = growth rescue; actives 0.19% (n = 330,000); AID 485353; active means well fitted rising curve with a large enough effect; inconclusive means small, poorly fitted or top-dose-only effect; inactive means no such curve, though single readings can be large or run the other way; also: 0% is about no effect; nearly all actives have a fitted effect of over 55% in size; growth read by luminescence after 48 h
2A StopGo: FMDV 2A StopGo reporter, luciferase signal; human cells with a luciferase reporter of 2A StopGo recoding; control for the full effect not named in the record; Potency, µM (titrated, usually from 57.9 µM), without a hit: at the highest dose signal change, negative = less light; actives 1.2% (n = 410,000); AID 1159524; active = well fitted falling curve with a large enough effect; inconclusive = small, poorly fitted or top-dose-only effect; inactive = no such curve, though single readings can be large or run the other way; tested in HEK293T cells; also: % is scaled to controls: 0 for no effect and ±100 for the full control effect; nearly all actives have a fitted effect of over 45% in size; luciferase light after 4 h
NS1 function inh: influenza NS1 inhibition; actives 0.4% (n = 270,000); S. cerevisiae slowed by influenza A NS1, growth recovery by OD600; Potency, µM (highest dose often 46.1 µM), without a hit: at the top dose activity, positive = more growth; active means well fitted rising curve with a large enough effect; inconclusive means small, poorly fitted or top-dose-only effect; inactive means no such curve, though single readings can be large or run the other way; also: nearly all actives have a fitted effect of over 50% in size
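Compounds were scored for reversing the slow growth caused by influenza A NS1 in S. cerevisiae, measured by optical density at 600 nm. Assay medium contained 2% galactose at pH 6.0; NS1-free yeast of the same strain were the positive control.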
MARV entry inh: blocks Marburg virus binding to or entry into cells; AID 540276; actives 1.8% (n = 300,000); Potency, µM (highest dose often 37.8 µM), without a hit: top-dose activity change, negative = inhibition, usual class: inhibitors; Marburg virus pseudotyped entry inhibition, cell reporter; control for the full effect not named in the record; about a third of the inactives were read at about 46 µM; active = well fitted inhibition curve with a large enough effect; inconclusive = small, poorly fitted or top-dose-only effect, or effect the other way; inactive = flat fitted curve, though single readings scatter; tested in HEK293 cells; about a fifth of its hits are not listed in these tables; also: % is scaled to controls: 0 for no effect and ±100 for the full control effect; luciferase read-out
LASV entry inh: blocks Lassa virus binding to or entry into cells | Lassa virus pseudotype entry inhibition, cell reporter; control for the full effect not named in the record | Potency, µM (highest dose often 37.9 µM), for inactives: at the highest dose activity change, negative = inhibition, actives largely listed as inhibitors | actives 1.2% (n = 300,000); active means well fitted inhibition curve with a large enough effect; inconclusive means small, poorly fitted or top-dose-only effect, or effect the other way; inactive means flat fitted curve, though single readings scatter; tested in HEK293 cells; also: % is scaled to controls: 0 for no effect and ±100 for the full control effect; nearly all actives have a fitted effect of over 50% in size; luciferase read-out
Cruzain inh noDet: cruzain (T. cruzi) inhibition without detergent; AID 1476; purified cruzain, Z-FR-AMC fluorescence, no detergent; actives 2.3% (n = 200,000); P25779; Potency, µM, inactives show max response, negative = inhibition, actives largely listed as inhibitors;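 also: plate controls were enzyme without inhibitor for no effect and buffer without enzyme for full effect; nearly all actives have a fitted effect of over 40% in size; top concentration of the series not given in the record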
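Detergent-free condition (0.00005% Triton X-100) in acetate buffer pH 5.5 with DTT. 1.5 nM enzyme and compound were pre-mixed 15 min, then 2 uM Z-FR-AMC substrate added; reaction progress from fluorescence change between first and third reads (60 s).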
Starred values were filed as active, the others as inactive; ? = inconclusive; . = no result given; & = joins results of further samples; [ ] = another dose, or the depositor's remark. Unless noted, calls follow the shape of the dose curve; as a rule, active = well fitted curve in the direction sought with a large enough effect; inconclusive = small, poorly fitted or top-dose-only effect, or another doubt; inactive = no such curve, though single readings can be large; an effect the other way counts as inactive or inconclusive. Potency is read from the fitted curve at half-maximal effect. Hits appear at their usual frequency; about 4.7% have a hit in one of these screens.

SMILES	RE007 growth inh	Cruzain inh Det	SARS PLP yeast	2A StopGo	NS1 function inh	MARV entry inh	LASV entry inh	Cruzain inh noDet
COc1ccc(OC(=O)c2cc3ccccc3o2)cc1	28.6%	-2.1%	-4.3%	12.3%	-7.7%	22.3%&22.3%	?	-6.2%
CCOc1ccc2ccccc2c1/C=N\NC(=O)c1ccc([N+](=O)[O-])cc1	4.8%	.	1.3%	11.3%	-8.3%	2.8%	9.0%	.
O=C(COC(=O)c1cccs1)NCC1CCCO1 (stereo not drawn)	25.6%	-0.1%	0.1%	14.9%	1.3%	-0.6%	16.7%	17.2%
O=C(OCC1CCCO1)c1ccc2c(c1)N(Cc1ccc(F)cc1)C(=O)c1ccccc1S2(=O)=O (stereo not drawn)	.	-3.1%	.	-17.4%	.	.	-9.5%[46.1 µM]	6.1%
Fc1ccc(-c2csc(-c3nc(-c4ccc(Br)s4)cs3)n2)cc1	.	-0.4%	.	3.1%	.	?	?	8.0%
CN(C)c1ccc(/C=c2/sc3n(c2=O)NC2(c4ccccc4)N(C)C(=O)N(C)C2(c2ccccc2)N=3)cc1 (stereo not drawn)	.	-4.2%	-0.4%	.	9.0%	13.2%	-0.5%	-2.5%
O=C(O)CCNC1C=CS(=O)(=O)C1 (stereo not drawn)	10.9%	.	0.5%	-4.2%	.	10.2%[46.1 µM]	0.1%	.
CCCC1c2ccc(C)n2CCN1C(=O)Nc1ccccc1Cl (stereo not drawn)	-7.6%	-5.5%	-3.5%	0.0%	2.6%	15.3%&15.3%	18.6%	-27.2%
O=C(NC1CC1)c1ccc(NS(=O)(=O)c2ccccc2)cc1	0.4%	.	12.3%	6.2%	8.1%	-0.2%[46.1 µM]	2.2%[46.1 µM]	.
Cc1csc(NC(=O)CSc2nccn2C)n1	3.3%	.	-9.1%	27.3%	4.8%	?	?	.
Clc1ccccc1CNCc1ccncc1	-3.5%	.	0.2%	-12.7%	.	21.7%[46.1 µM]	-15.9%[46.1 µM]	.
COC(=O)CCCC1=CC2=C(c3ccccc3)C(=O)C(C)(OC(=O)C3CCCC3)C(=O)C2=CN1Cc1ccco1 (stereo not drawn)	-0.3%	.	0.9%	-7.9%	4.4%	?	.	.
O=C(COc1ccccc1Cl)NCCCNC(=O)c1ccncc1	-3.0%	.	4.8%	5.4%	-0.9%	10.4%[46.1 µM]	?	.
CCC(=O)Oc1ccc2ccccc2c1CNC(=O)c1ccccc1	26.4%	-9.2%	1.6%	-26.3%	-22.2%	?	0.0%	-1.8%
CCOc1ccc(CCNC(=O)CSc2ncn[nH]2)cc1OCC	1.6%	.	-0.5%	-12.9%	-0.5%	15.8%	-13.4%	.
Cc1cccc(C(=O)Nc2ccc(S(=O)(=O)N3CCOCC3)cc2)c1[N+](=O)[O-]	11.8%	.	2.0%	3.0%	-1.4%	.	.	.
Cc1ccccc1C(=O)N1CC(=O)Nc2ccc(F)cc2C1c1ccccc1 (stereo not drawn)	4.5%	.	1.8%	3.5%	1.9%	1.3%[46.1 µM]	10.8%[46.1 µM]	.
COc1ccc(NC(=O)C2CCCN(S(=O)(=O)c3c(C)n[nH]c3C)C2)c(OC)c1 (stereo not drawn)	2.3%	7.4%	-3.8%	-26.7%	-12.9%	4.5%[46.1 µM]	6.6%	4.0%
O=C(NCCc1cccc(Cl)c1)c1cc([N+](=O)[O-])ccc1Cl	-6.6%	-4.9%	-4.9%	?	0.0%	-27.3%	-5.7%	-11.1%
CCC(CC)NCc1c[nH]c2ccccc12	-10.3%	.	-0.2%	-16.8%	-0.9%	?	-4.1%	.

Two entries from above, bar-delimited.
SMILES | RE007 growth inh | Cruzain inh Det | SARS PLP yeast | 2A StopGo | NS1 function inh | MARV entry inh | LASV entry inh | Cruzain inh noDet
COc1ccc(NC(=O)C2CCCN(S(=O)(=O)c3c(C)n[nH]c3C)C2)c(OC)c1 (stereo not drawn) | 2.3% | 7.4% | -3.8% | -26.7% | -12.9% | 4.5%[46.1 µM] | 6.6% | 4.0%
O=C(NCCc1cccc(Cl)c1)c1cc([N+](=O)[O-])ccc1Cl | -6.6% | -4.9% | -4.9% | ? | 0.0% | -27.3% | -5.7% | -11.1%

Continued:
SMILES	RE007 growth inh	Cruzain inh Det	SARS PLP yeast	2A StopGo	NS1 function inh	MARV entry inh	LASV entry inh	Cruzain inh noDet
Cc1ccc(NC(=O)CN(C)C(=O)Cc2c[nH]c3ccccc23)cc1	-12.5%	.	4.3%	37.6%[activator]	.	-0.6%	0.7%	.
Nc1ccc(C(=O)NNC(=O)C2COc3ccccc3O2)cc1[N+](=O)[O-] (stereo not drawn)	1.8%	.	0.6%	-13.7%	.	2.9%	23.6%	.
C=CCn1c(-c2cccc(Cl)c2)n[nH]c1=S	12.8%	-5.8%	?	-0.4%	-40.7%	9.8%	-4.3%	11.6%
CCOC(=O)C1(Cc2ccccc2)CCCN(Cc2cnn(CC)c2)C1 (stereo not drawn)	8.2%	.	1.1%	1.2%	1.1%	.	.	.
CN(CC(=O)NC(=O)Nc1ccccc1F)Cc1ccccc1F	-8.1%	.	-2.1%	32.9%[activator]	.	2.2%	-1.3%	.
COCCN(CCOC)C(=O)c1sc2nc(-c3ccccc3)cn2c1C	-0.3%	-1.8%	-1.5%	7.4%	-1.5%	21.9%	18.8%	7.0%
Cc1c(CC(=O)N2CCCCC2)c(=O)oc2c(C)c3occ(C(C)(C)C)c3cc12	.	-1.8%	.	-19.6%	.	9.8%[46.1 µM]	-2.9%[46.1 µM]	12.9%
COc1ccc(N2CCN(S(=O)(=O)c3ccc(F)c(C(=O)Nc4ccccc4Cl)c3)CC2)cc1	.	0.0%	.	?	.	.	-18.8%[46.1 µM]	10.6%
Cc1ccc(S(=O)(=O)NC(CC(C)C)C(=O)NCC(C)(C)N2CCOCC2)cc1 (stereo not drawn)	-5.0%	.	1.8%	12.9%	.	?	0.8%	.
CC(C)c1ccc(CNc2n[nH]c(-c3ccco3)n2)cc1	.	-2.9%	.	36.1%[activator]	.	6.1%[46.1 µM]	8.0%[46.1 µM]	-0.4%
O=[N+]([O-])c1cccc(O)c1	-19.8%	2.2%	-0.4%	0.0%	.	.	.	-1.6%
CC(C)(C)OC(=O)N[C@@H](CCCCNC(=O)OCc1ccccc1)c1nnc([C@H](CCCCNC(=O)OCc2ccccc2)NC(=O)OC(C)(C)C)o1	-7.8%	.	-0.2%	5.8%	-33.3%	.	.	.
COCCN(CCOC)C(=O)C12CCC(C)(C(=O)C1)C2(C)C (stereo not drawn)	9.9%	-0.1%	8.5%	9.6%	9.1%	6.6%	13.0%	-7.3%
Cc1cccc(Cn2cccc(C(=O)Nc3ccc4c(c3)OCCO4)c2=O)c1	.	-7.3%	.	-24.5%	.	.	-13.0%[46.1 µM]	26.0%
CCN(CCCNC(=O)CSc1cc(=O)n(CC)c2ccccc12)c1cccc(C)c1	.	-1.7%	.	?	.	?	-30.0%[46.1 µM]	?
COc1ccc(-c2n[nH]c(C(F)(F)F)c2-c2cc3ccccc3o2)c(O)c1	?	-13.4%	-46.5%	?	-64.9%	?	?	12.6%
CC(=O)OCC(=O)N1CCN(c2ccc([N+](=O)[O-])cc2)CC1	-11.0%	-8.9%	1.5%	-28.6%	11.4%	13.3%	2.0%	0.5%
O=C(Nc1nc2c(Cl)cccc2s1)c1ccc(S(=O)(=O)N2CCc3ccccc32)cc1	.	-2.1%	.	?	.	.	?	3.16µM*
COC(=O)c1cc(-c2ccc(C)cc2)c2c(=O)n(C)c(=O)n(C)c2n1	.	-3.0%	.	11.1%	.	?	?	-0.4%
Clc1ccc(-n2ncc3c(N4CCCC4)ncnc32)cc1	2.2%	-1.0%	-1.1%	10µM*	-7.8%	?	?	?
c1ccc(SCc2nc(-c3ccncc3)n[nH]2)nc1	2.6%	.	-0.4%	17.5%	.	4.8%[46.1 µM]	-3.7%[46.1 µM]	.
COc1ccc(N2CCN(Cc3cc(=O)oc4ccc(Cl)cc34)CC2)cc1	38.3%	3.3%	-2.4%	7.3%	-10.3%	-15.3%	-29.6%	?
Cc1ccccc1CSc1nc2c(c(=O)[nH]1)CCC2	17.1%	5.4%	5.3%	8.9%	?	0.1%	11.7%	3.4%
O=C(COC(=O)CCc1c[nH]c2ccccc12)NCCc1ccccc1	-5.1%	.	-3.2%	-10.4%	.	?	-1.6%	.
O=C1OCc2nc3cc4c(cc3c(-c3ccc(F)cc3)c21)OCO4	0.2%	.	0.2%	-11.5%	-0.1%	.	.	.
COCCNC(=O)c1cc(-c2ccncc2)nc2ccc(S(=O)(=O)N3CCOCC3)cc12	2.5%	.	-3.1%	-8.8%	.	5.2%	2.9%	.
CN1CCN(Cc2ccccc2Sc2ccccc2)CC1	3.0%	0.5%	-0.4%	-15.6%	21.2%	?	?	-0.6%
O=C(CCn1c(=O)oc2ccccc21)Nc1cccc(Cl)c1	5.0%	-2.2%	-14.4%	-13.9%	-7.2%	.	.	-0.1%
Cc1ccccc1CNC(=O)c1oc2c(c1C)-c1nn(Cc3ccc(Cl)cc3)cc1CC2	.	-4.5%	.	-23.5%	.	.	-20.6%[46.1 µM]	-2.1%
COc1cc2c(cc1OC)C(c1ccc(F)cc1)N(c1ccccc1)C(=O)C2 (stereo not drawn)	.	-4.3%	.	-9.3%	.	1.2%[46.1 µM]	-4.7%[46.1 µM]	1.7%
COc1cccc(NC(=S)N2CCn3cccc3C2c2cccnc2)c1 (stereo not drawn)	3.8%	.	5.1%	2.3%	1.8%	-0.1%[46.1 µM]	0.2%	.
COc1ccc(C)cc1NC(=O)CCc1c(C)nn(-c2ccc(N3CCCCC3)nn2)c1C	-1.5%	-5.2%	-6.9%	-14.1%&-4.1%	?	.	-27.7%[46.1 µM]	14.4%
CN1CCN(CCCNC(=O)c2ccc(CS(=O)(=O)c3ccc(Br)cc3)o2)CC1	6.5%	4.5%	0.0%	-3.1%	1.3%	-1.2%	.	-7.8%
